# MT1-MMP act inh – blocks activation of human MT1-MMP; HT1080 RFP-PRO-GFP cells, GFP/RFP ratio fluorescence, overnight; percent of plate control window, DMSO zero; GFP/RFP ratio change, % at 20 µM; 360,000 tested, 0.061% active;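 active = GFP/RFP ratio change of at least 30% with cell ATP level not reduced by more than half and red fluorescence within 50% of control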; note: strong numbers were not always called active
#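 Assay system: RFP-PRO-GFP reporter HT1080 cells; read-out basis: GFP/RFP fluorescence ratio; benchmarks: DMSO wells and RFP-L50D-GFP cells; doses: 20 µM single dose, 1% DMSO; schedule: overnight cell settling, then overnight compound exposure, 37 °C, 5% CO2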
# Rce1 inh – inhibitors of yeast Ras-converting enzyme. 290,000 tested, 0.27% active. Q03530. yeast membranes, quenched prenylated peptide cleavage fluorescence. calls only;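 active = fall in fluorescence gain of 50% or more versus controls, with final raw signal at or below 3038400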;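 note: plate controls were neutral control wells for no effect and wells lacking membranes for full effect; tested at 10 µM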
# Env fusion inh – inhibitors of HIV Env-mediated cell fusion; inhibition, % at 12.3 µM; HeLa-JRFL Env/CEM21 cell fusion, luciferase; AID 651610; 360,000 tested, 1.1% active;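 active = mean replicate inhibition score of at least 50 and every replicate individually at or above 50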;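 note: 0% = plate neutral controls and 100% = maraviroc near 300 nM; one replicate is shown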
# CSC inhib – cancer stem cell inhibition; cancer stem cell-like cells viability, luminescence; inhibition, % at 7.5 µM; 300,000 tested, 1.1% active; AID 2717;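 active = mean at 75% or more and at least half the replicates too; tested in HMLE shEcad cells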;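 note: 0% = median of negative and 100% = median of positive control wells; the first replicate is given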
# PABP FP inh – PABP-poly(A) binding inhibition. PABP-poly(A) RNA binding, fluorescence polarization. inhibition, % at 35 µM. 290,000 tested, 1% active. P11940;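 active = 50% or more with normal probe brightness, or confirmed in later tests; about a fifth of its hits are not listed in these tables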;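 note: calls also rest on retests at 20 µM and on dose response follow-up; controls were probe without protein and protein plus probe with vehicle; some compounds called inactive have numbers as strong as hits; many hits fall short of the cut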
# Target sequence (P11940 whole entry, looked up): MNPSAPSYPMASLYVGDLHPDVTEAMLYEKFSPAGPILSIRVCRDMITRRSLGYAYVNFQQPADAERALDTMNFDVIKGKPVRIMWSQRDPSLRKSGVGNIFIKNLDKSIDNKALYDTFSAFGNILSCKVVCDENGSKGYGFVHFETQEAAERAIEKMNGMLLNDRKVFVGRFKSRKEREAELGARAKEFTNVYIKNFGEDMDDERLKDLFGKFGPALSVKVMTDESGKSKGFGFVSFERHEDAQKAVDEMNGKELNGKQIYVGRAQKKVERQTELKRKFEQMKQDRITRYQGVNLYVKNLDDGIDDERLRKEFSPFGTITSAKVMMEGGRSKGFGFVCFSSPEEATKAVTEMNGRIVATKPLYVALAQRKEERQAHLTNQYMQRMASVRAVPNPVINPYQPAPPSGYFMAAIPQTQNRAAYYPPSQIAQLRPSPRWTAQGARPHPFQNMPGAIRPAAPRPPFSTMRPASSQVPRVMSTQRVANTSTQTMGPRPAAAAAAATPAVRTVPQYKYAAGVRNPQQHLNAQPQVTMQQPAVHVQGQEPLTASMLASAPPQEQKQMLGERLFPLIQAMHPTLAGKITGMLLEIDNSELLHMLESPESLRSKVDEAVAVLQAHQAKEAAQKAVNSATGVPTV
# Yeast UUG start – alters start codon recognition fidelity in yeast | S. cerevisiae UUG-firefly luciferase reporter, luminescence/redox ratio | activity score, % at 18.7 µM | 350,000 tested, 0.13% active;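 active = replicate mean at a twofold rise or more, about +100% in these data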;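 note: firefly luciferase made from a UUG start codon reports start codon fidelity; reporter light over untreated wells divided by growth signal over untreated wells; some hits fall short of that in this replicate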
# eIF4H inh – inhibitors of RNA binding by human eIF4H | eIF4H fluorescence polarization binding assay | inhibition, % at 35 µM | 290,000 tested, 0.94% active | AID 2012;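 active = 50% or more with normal probe brightness, or confirmed in later tests; about a fifth of its hits are not listed in these tables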;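 note: calls also rest on retests at 20 µM and on dose response follow-up; 0% = protein and probe with vehicle and 100% = probe without protein; strong numbers were not always called active; many hits fall short of the cut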
# eIF4H inh retest – second read-out of eIF4H inh, no call of its own (marks repeat the call); inhibition, %; compound at 20 µM; confirmation average;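 mean of two retest wells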
# PABP FP inh retest – also measured in PABP FP inh; calls as there; inhibition, %; compound at 20 µM; confirmation repeats;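 mean of two retest wells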
# MT1-MMP act inh RFP – also measured in MT1-MMP act inh; calls as there; RFP signal change, %; measured here: RFP expression control read;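 0 = vehicle wells; hits needed this value within 50% of zero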
# Active calls of the source: *; i = inactive; nt = not tested or not shown. An unsorted share of the library, and some 2.9% of all compounds hit somewhere here.
SMILES,MT1-MMP act inh,MT1-MMP act inh RFP,Rce1 inh,Env fusion inh,CSC inhib,PABP FP inh,Yeast UUG start,eIF4H inh,others
Cc1nnc(SCc2nc3ccccc3s2)n1N,-2,2,i,-38,-16,3,nt,-1,
Cc1nc(C(F)(F)F)c(C(=O)O)cc1-c1nc(-c2ccccc2)cs1,3,4,i,9,-29,13,6,7,
CCOC(=O)c1c(NC(=O)Cn2cnc([N+](=O)[O-])n2)sc(C)c1C,-4,-4,i,12,-6,-5,-11,-1,
C/[N+]([O-])=C\C1C(=O)CC(C)(C)CC1=O,0,4,i,-7,-4,32,nt,4,
O=C(CN1CCC(NC(=O)c2ccco2)CC1)Nc1ccccc1[N+](=O)[O-],nt,nt,i,nt,-4,1,nt,7,
COc1cc(/C=N/N=C(N)N)ccc1OCc1ccc(Cl)cc1,-2,-11,i,-27,50,-7,-31,-4,
O=S(=O)(CCc1ccncc1)c1ccc(Cl)cc1,2,-3,i,-11,nt,2,-14,6,
FC(F)(F)c1cccnc1-n1cncn1,1,5,i,10,1,-11,nt,-8,
CCOC(=O)/C=C/[C@H]1CCc2cccc(Cl)c2O1,-4,1,nt,-21,15,nt,-20,nt,
COC(=O)Cc1cc(=O)n2[nH]cnc2n1,2,6,i,nt,6,7,-25,9,
CC1CCN(C(=O)C(Cc2ccccc2)NS(=O)(=O)c2ccc3c(c2)oc(=O)n3C)CC1 (stereo not given),1,1,nt,44,-8,-1,-11,-5,
COn1c(-c2ccccc2)nc2ncccc21,1,1,i,3,-5,8,-14,-3,
Cc1ccc(NC(=O)c2cc(-c3cccc(O)c3)on2)cc1C,1,-6,i,-12,80*,5,11,2,
O=C(CCCN1C(=O)/C(=C\c2cccs2)SC1=S)Nc1ccc(O)cc1,4,1,i,4,nt,15,nt,-4,
CC1Cc2cc(/C(O)=C3\C(=O)C(=O)N(Cc4cccnc4)C3c3ccccc3F)ccc2O1 (stereo not given),-4,1,i,nt,-2,8,-20,-14,
COc1ccccc1N1CCN(S(=O)(=O)c2ccc(Cl)cc2)CC1,-4,-1,i,-3,nt,-10,-1,-8,
COc1ccc(OC)c(C2=NNC(=NCc3ccc4c(c3)OCO4)SC2)c1,-3,-2,i,-30,3,5,nt,-9,
O=C(Nc1ccc(F)cc1F)NC1CC1,1,-1,i,0,1,-12,nt,-2,
COCc1c(C(=O)OC)nnn1-c1ccccc1,3,1,i,-13,-3,1,-5,-11,
O=S(=O)(NCC(c1cccnc1)N1CCN(c2ccc(F)cc2)CC1)c1cc(F)ccc1F (stereo not given),-2,1,i,nt,23,nt,-13,nt,
COC(=O)c1ccc(SCc2ccccc2)nc1,1,2,i,-8,0,nt,-10,nt,
Cc1ccc(-n2ncc3c(NCc4ccc5c(c4)OCO5)ncnc32)c(C)c1,-1,-5,i,27,5,-2,-12,2,
COc1ccc(S(=O)(=O)n2nc(C)cc2C)cc1OC,0,-2,i,8,-19,14,1,1,
CCOC(=O)C(=CNc1cccc(C)c1C)C(=O)OCC,6,-1,i,nt,nt,2,nt,2,
CCCNC(=O)C1(C)CCN(Cc2cc(C)n(C)n2)C1 (stereo not given),2,3,nt,-4,nt,nt,-18,nt,
CC(C)CNC(=S)NC(=O)c1csc([N+](=O)[O-])c1,-1,6,i,5,-6,-4,nt,-2,
CN1CCN(C2CCN(c3ccc(Nc4nnc(Cl)c(Nc5ccccc5S(C)(=O)=O)n4)c(OC(CF)CF)c3)CC2)CC1,1,5,nt,19,-10,nt,14,nt,
CCc1ccccc1N(C)S(=O)(=O)c1ccc2[nH]cc(C(=O)N3CCc4ccccc43)c(=O)c2c1,1,1,i,6,-1,10,nt,8,
CC(OC(=O)CCN=C1NS(=O)(=O)c2ccccc21)C(=O)N(C)C1CCCCC1 (stereo not given),-5,0,i,nt,-11,nt,-13,nt,
COc1ccc(S(=O)(=O)N2CCOCC2)cc1NC(=O)COC(=O)c1ccc(C)s1,-2,0,i,20,nt,-12,1,-4,
Cc1ccc(S(=O)(=O)N2CCOC2CNC(=O)C(=O)NCc2ccccc2)cc1 (stereo not given),0,-2,i,-6,-3,3,-3,-2,
CSc1ccc(S(=O)(=O)NC2CCCCCC2)cc1,3,-5,i,nt,2,-4,-4,1,
N/C(=N\c1nc2ccccc2o1)NC(=O)c1cccc(Br)c1,0,2,i,-14,1,-11,-26,-1,
COC(=O)Cn1c(CCS(=O)(=O)c2ccc(C)cc2)nc2ccccc21,-1,0,i,-50,3,16,-22,1,
Nc1cc(=O)[nH]c(SCC(=O)NC2CCCc3ccccc32)n1 (stereo not given),6,6,i,7,-3,19,0,-2,
CC1=NN(c2nc(-c3ccc(C)cc3)cs2)C(=O)C1N=Nc1cccc(C)c1 (stereo not given),11,2,i,nt,13,-7,nt,-3,
O=C(Cn1cnc2c(nnn2-c2ccccc2)c1=O)NCCc1ccccc1,1,1,i,-21,-7,0,-5,-8,
COC(=O)C1=CN(Cc2ccc(F)cc2)C=C(C(=O)OC)C1c1cc(OC)c(OC)c(OC)c1,-1,0,i,22,-1,3,14,7,
Cn1c(/C=C/c2ccc(Cl)cc2)c([N+](=O)[O-])c(=O)n(C)c1=O,-13,-16,i,-28,57,-2,-21,3,
CCOCCCn1c(=S)[nH]c2cc(C(=O)N3CCN(c4ccccc4)CC3)ccc2c1=O,4,-7,i,8,-6,-3,-7,-16,
COc1cccc(OC)c1C(=O)Oc1ccc2c(c1)O/C(=C\c1ccncc1)C2=O,-27,-27,i,22,-9,35,9,7,
COC(=O)c1c(C)[nH]c(C(C)=O)c1C,5,7,i,nt,3,1,-15,-7,
CCc1[nH]nc2c1C(c1ccc(Br)s1)C(C#N)=C(N)O2 (stereo not given),6,-6,nt,nt,21,4,-28,-6,
COc1ccccc1NC(=O)c1ccc(S(=O)(=O)N2CCCC2)cc1,1,-2,i,-8,-5,4,1,2,
Cc1ccccc1NCN1C(=O)C2CCC(C)(C1=O)C2(C)C (stereo not given),2,3,i,-3,-3,-4,-12,-10,
COc1ccc(OCCOC(=O)C(C)NS(=O)(=O)c2ccc(NC(C)=O)cc2)cc1 (stereo not given),0,1,nt,nt,11,nt,-21,nt,
Fc1ccc2cnc(C3=CCCCC3)cc2c1,3,6,nt,-41,-5,nt,-14,nt,
NC(=O)N/N=C/c1ccccc1OCC(=O)NCc1ccccc1,1,-3,i,nt,-4,-5,nt,1,
COc1ccc(C(=O)Nc2cc3c(oc2=O)CCCC3=O)cc1,-1,2,i,-8,-14,-2,nt,86,eIF4H inh retest=10;PABP FP inh retest=25
CC(C)C(=O)N1CCN(c2ccccc2NC(=O)c2cccc3ccccc23)CC1,-3,-3,nt,6,-13,-6,-4,-3,
CCOc1ccc(N2CC(C(=O)Nc3ccc(OC)c(S(=O)(=O)N4CCCCC4)c3)CC2=O)cc1 (stereo not given),2,-2,i,-10,-2,64*,1,3,eIF4H inh retest=22;PABP FP inh retest=71*
C/C(=N/NC(=O)CN1CCN(Cc2ccccc2)CC1)c1ccc([N+](=O)[O-])cc1,8,3,i,10,-4,5,-13,6,
CSc1ccc(CN(C)C(=O)CNC(=O)CNS(=O)(=O)c2ccc(C)c(C)c2)cc1,6,-7,nt,21,-2,3,-13,-3,
Cc1c(C(=O)OC(C)C)nnn1-c1nonc1N,12,4,i,-7,-11,14,-1,-8,
CC1C/C(=N/NC(=O)c2cccs2)CC(C)(C)C1 (stereo not given),-2,1,i,-97,-9,4,-3,76,eIF4H inh retest=19;PABP FP inh retest=23
OCC1(CCOc2ccccc2)CCN(CC2=Cc3cc(Cl)ccc3OC2)CC1,5,-8,i,13,62,2,nt,4,
COc1cccc(-c2nc(-c3ccccc3)[nH]c(=O)c2C#N)c1,21,2,i,-32,22,-1,5,-13,
O=[N+]([O-])c1cc2c(c(CSc3nnnn3-c3ccc(O)cc3)c1)OCOC2,-1,-3,i,3,-3,-17,-12,1,
O=C(CSc1nc2cc3c(cc2c(=O)n1CCC1=CCCCC1)OCO3)NCc1ccco1,0,2,i,-5,-16,5,2,-10,
O=C(NCCn1c(C(F)(F)F)nc2cc(C(F)(F)F)ccc21)[C@H]1CCCN1c1nc(CN2CCCCC2)cs1,-1,3,i,nt,-6,3,5,-8,

# Further records follow.
SMILES,MT1-MMP act inh,MT1-MMP act inh RFP,Rce1 inh,Env fusion inh,CSC inhib,PABP FP inh,Yeast UUG start,eIF4H inh,others
c1ccc(N2CCN(c3nc4cc5c(cc4s3)OCCO5)CC2)cc1,13,-7,i,-12,-7,-10,-4,2,
O=C(NC1CC1)c1cc(Cl)ccc1[N+](=O)[O-],2,5,i,14,-1,-1,3,-4,
CCOC(=O)C1(C)CCCN(C(=O)c2ccc(C)c(F)c2)C1 (stereo not given),1,2,nt,1,nt,nt,-7,nt,
CCOC(=O)C1CCN(C(=O)c2ccccc2NC(C)=O)CC1,3,4,i,nt,nt,-6,2,0,
Cc1ccc(-c2csc3ncnc(-n4nc(C)cc4N)c23)cc1,1,3,i,nt,-19,-6,nt,-2,
Cc1noc(C)c1-c1ccc(C(=O)Nc2ccccc2)c2occc12,10,4,nt,-105,nt,nt,-20,nt,
CC(C)(C)C(=O)CC1(O)C(=O)N(Cc2ccc(Cl)cc2)c2ccccc21 (stereo not given),4,-4,i,36,-12,0,-7,5,
CC(C)C(OC(=O)c1cccc(S(=O)(=O)NCC(F)(F)F)c1)C(=O)NC(N)=O (stereo not given),-3,3,i,-6,-2,0,-9,-9,
COc1ccc(C2C(C(C)=O)=C(O)C(=O)N2c2nccs2)cc1 (stereo not given),3,0,i,nt,-4,15,-12,-17,
O=C(Cn1cnc2c(OCc3ccccc3)ncnc21)N[C@H](CO)Cc1cc2ccccc2[nH]1,4,3,nt,12,nt,nt,-2,nt,
COC(=O)N[C@@H]1C[C@H]2[C@@H]3CC[C@H]4C[C@@H](OC)CC[C@]4(C)[C@H]3CC[C@@]12C,-2,-27,nt,16,2,nt,5,nt,
Clc1ccc(CN2CCN(c3ncccn3)CC2)cc1Cl,1,-3,nt,-4,17,2,-5,12,
CCC(=O)Nc1ccc(-c2ccc(N3CCCCC3)nn2)cc1,5,4,i,-26,-7,nt,-13,nt,
CCOC(=O)c1cc(C(=O)OCC)c2ccccn2c1=O,-5,0,i,nt,-11,-1,nt,7,
Nc1cc(=O)[nH]c(SCC(=O)N2CCc3ccccc3C2)n1,1,0,i,-43,-8,1,-6,0,

# Overlap with the part before: 5 compounds, followed by the next part.
SMILES,MT1-MMP act inh,MT1-MMP act inh RFP,Rce1 inh,Env fusion inh,CSC inhib,PABP FP inh,Yeast UUG start,eIF4H inh,others
COC(=O)N[C@@H]1C[C@H]2[C@@H]3CC[C@H]4C[C@@H](OC)CC[C@]4(C)[C@H]3CC[C@@]12C,-2,-27,nt,16,2,nt,5,nt,
Clc1ccc(CN2CCN(c3ncccn3)CC2)cc1Cl,1,-3,nt,-4,17,2,-5,12,
CCC(=O)Nc1ccc(-c2ccc(N3CCCCC3)nn2)cc1,5,4,i,-26,-7,nt,-13,nt,
CCOC(=O)c1cc(C(=O)OCC)c2ccccn2c1=O,-5,0,i,nt,-11,-1,nt,7,
Nc1cc(=O)[nH]c(SCC(=O)N2CCc3ccccc3C2)n1,1,0,i,-43,-8,1,-6,0,
CCc1cc(CNC(=O)CC2C(=O)NCCN2Cc2c(F)cccc2Cl)on1 (stereo not given),-1,2,i,7,-7,-3,-17,-2,
CS(=O)(=O)N(CC(=O)NCc1ccncc1)c1cc(Cl)ccc1Cl,2,-2,i,6,-9,-16,nt,-4,
NCCC(=O)NCCc1cnc[nH]1,-1,-4,nt,6,-4,nt,-3,nt,
Clc1ccc(-c2nnc(-c3ccccc3)nc2N2CCSCC2)cc1,-3,-5,i,-39,-4,1,-1,3,
CCOc1ccc(CCNC(=O)CCNS(=O)(=O)c2ccc(Br)cc2)cc1OCC,-3,-6,i,3,nt,-9,14,-2,
